nsP2pro inh: CHIKV nsP2 protease inhibition, primary qHTS | Q8JUX6 | FRET peptide cleavage, nsP2pro, fluorescence 1 h | Potency, µM (doses to about 24.9 µM), inactives show at the top dose activity change, negative = inhibition, hits mostly inhibitors | hit rate 1.1% among 31,000; active means well fitted inhibition curve with a large enough effect; inconclusive means small, poorly fitted or top-dose-only effect; inactive means no such curve, though single readings can be large or run the other way; note: nearly all actives have a fitted effect of over 60% in size; a reference inhibitor and vehicle were the controls
An asterisk follows results filed as active; i = inactive; u = inconclusive; & = joins results of further samples; [ ] = another dose, or the depositor's remark. % is set by controls: 0 for no effect and ±100 for the full control effect; potency is the fitted concentration of half-maximal effect. These rows are one share of the data; the hit share may differ from the screen's.

SMILES	nsP2pro inh
COC(=O)[C@H](NC(=O)[C@@H]1[C@@H](NC(=O)Nc2ccc(F)cc2F)CCN1C(=O)CSC)C(C)C	-5.2%
Cc1cc(C(=O)N2CCCC(C(=O)Nc3cccc(-c4cc5ccccc5[nH]4)c3)C2)nn1C (stereo not drawn)	-1.3%
Cc1nc(CC2CCN(C(=O)CCc3cc4n(n3)CCCNC4)CC2)no1	-0.5%
O=C1CCC2(CCCO2)CCN1Cc1ccc(C(F)(F)F)c(F)c1 (stereo not drawn)	-0.8%
Cc1ncoc1C(=O)N1CCC(N2CCCC(C(=O)N3CCCC3)C2)CC1 (stereo not drawn)	2.1%
COc1ccc(CNC(=O)c2cnc(N3CCCC3)nc2C)c(OC)c1	-8.5%
C[C@@H]1CC(=O)Nc2cccc(-c3cnn(C(C)(C)C)c3)c2N1	1.6%
COc1ccccc1CNC(=O)CS(=O)(=O)c1cccc2nsnc12	-13.8%
COc1ccc(CN(Cc2ccccc2)S(=O)(=O)c2ccccc2)cc1COc1ccc(NC(C)=O)cc1	-14.5%
O=C(CSc1nc(-c2ccccc2)no1)N1CCN(c2ccccc2F)CC1	-14.0%
CCOC(=O)c1ccc(N2C(=O)c3[nH]nc(-c4ccc(OCC)cc4)c3C2c2cccs2)cc1 (stereo not drawn)	0.0%
COc1ccc(S(=O)(=O)n2cnc3cc(C)c(C)cc32)cc1	21.8%
NC(=O)C1CCN(c2nc(-c3ccccc3N)cs2)CC1	i
COc1ccc(CCNC(=O)Cn2cc(C(=O)c3ccc(Cl)cc3)c(=O)c3ccc(C)nc32)cc1OC	-14.9%
O=C(OC1C[C@H]2CC[C@@H](C1)[N+]21CCCC1)C(O)(c1ccccc1)c1ccccc1 (stereo partly drawn)	-4.8%
COc1cc2c(c(OC)c1OC)-c1c(cc(OC)c(OC)c1OC)C[C@](C)(O)[C@@H](C)C2	15.8%
CCN1CCN(C(=O)c2ccc3c(c2)N(Cc2ccccc2)C(=O)c2ccccc2S3=O)CC1 (stereo not drawn)	-11.7%
CC(C)[C@H](O)C(=O)N[C@@H](C)C(=O)N[C@@H]1C(=O)N(C)CCc2ccccc21	-2.1%&-4.1%&-4.1%
O=C(Nc1ccccc1Cl)c1cc2c(-c3ccccc3)nn(-c3ccccc3)c2s1	-17.2%
N#Cc1ccccc1S(=O)(=O)N1CCC(Oc2ccc(-n3cnnn3)cc2)CC1	-10.7%
NS(=O)(=O)c1ccc(NC(=O)CSc2ccc3ccccc3n2)cc1	31.3%[activator]
CN(CCNc1nc(CCN)nc2ccccc12)S(C)(=O)=O	i
Cc1ccc(OCc2nc(C3CCN(S(=O)(=O)Cc4ccccc4F)C3)no2)cc1 (stereo not drawn)	-0.1%
Cc1cc2c(s1)c1cnn(Cc3cccc(C(F)(F)F)c3F)c(=O)c1n2C	-5.5%
Nc1[nH]nc2nc3ccccc3nc12	35.3%[activator]
Cc1ccc(OCCn2c(CCNC(=O)c3cccc(C#N)c3)nc3ccccc32)cc1	-8.9%
CCOC(=O)c1ccc(CN(Cc2ccccc2)S(=O)(=O)c2ccc(C)cc2)cc1	-22.3%
O=C(Cn1c(=O)n(CCc2ccccc2)c(=O)c2cccnc21)Nc1ccc(F)cc1	-9.6%
CCn1c(=NC(=O)c2ccc(S(=O)(=O)N3CCCC3)cc2)sc2cc(Br)ccc21	-14.1%
CC(=O)O[C@H]1CC[C@@]2(C)C(CC[C@@H](C)[C@]23Cc2c(O)cc4c(c2O3)CN([C@@H](CCC(=O)O)C(=O)O)C4=O)C1(C)C (stereo partly drawn)	-8.2%[10 µM]
CCN(CC)CCCNC(=O)c1oc2c(c1C)-c1nn(Cc3ccc(Cl)cc3)cc1CC2	35.7%[activator]
CC(=O)Nc1ccc(OC[C@](C)(O)C(=O)Nc2ccc([N+](=O)[O-])c(C(F)(F)F)c2)cc1	-7.3%
CC1=CC2/C=C(\C)CCC(O)C(O)/C=C/C(=O)OC23C(=O)NC(CC(C)C)C3C1C (stereo not drawn)	-14.5%[10 µM]
CCNC(=O)Nc1ncc(-c2cc(-c3c(C)cc(OC)cc3C)nc(-c3cnccn3)n2)s1	-4.1%&19.9%
CN1Cc2nc(OCc3ccc(F)cc3)ccc2OCC1=O	-5.8%[39.2 µM]
CCCNC(=O)c1ccc2c(c1)ncn2-c1ccc(C)cc1C	-1.2%
O=S(=O)(c1cccnc1)N1CC(F)(F)C[C@H]1c1nc(C2CC2)no1	-12.0%
CCOC(=O)c1cccc(NS(=O)(=O)c2cc3c(cc2C)NC(=O)CO3)c1	-10.5%
Cn1cc(-c2cc(=O)c3ccnc(NC4CCOCC4)c3o2)cn1	-10.9%[39.2 µM]
O=C(OC[C@H]1O[C@@H](Oc2ccccc2COC(=O)C2(O)C=CCCC2O)[C@H](O)[C@@H](O)[C@@H]1O)c1ccccc1 (stereo partly drawn)	60.0%[activator][10 µM]
Cc1ccc(CNC(=O)CN2Cc3ccccc3C2=O)cc1	-5.1%
O=C1Nc2c(c(=O)[nH]c(=O)n2-c2ccc(Cl)cc2)C1(NS(=O)(=O)c1ccccc1)C(F)(F)F (stereo not drawn)	-15.8%
O=C(c1ccccc1Cl)n1nc(-c2cccnc2)nc1NCc1ccc(F)cc1	7.0%
CCOCCCNC(=O)c1c(NC(=O)c2cc(=O)c3ccccc3o2)sc2c1CCC2	-10.1%
COc1ccc(NC(=O)CSc2nc3ccccc3n2CC(=O)N2CCCC(C)C2)cc1 (stereo not drawn)	-2.4%
COc1ccc(OC)c(S(=O)(=O)Nc2ccc3[nH]c(=O)[nH]c3c2)c1	-8.7%
CCOC(=O)c1c(S(=O)(=O)N2CCCC(C(=O)N(C)Cc3ccccc3)C2)c(C)n(C)c1C (stereo not drawn)	-11.6%
CN(C)CCc1c[nH]c2ccc(C[C@H]3COC(=O)N3)cc12	u
COC(=O)CNC(=O)N1CCCCCCNC(=O)[C@@H]2C[C@@H](c3nc(-c4cccnc4)no3)C[C@@H]21	1.7%
NCC1CCC(C(=O)O)CC1 (stereo not drawn)	1.0%[5.1 µM]
Nc1nc2ccc(OC(F)(F)F)cc2s1	25.8%
NC(=O)c1cccc(-c2cc(O)cc(OC(=O)NC3CCCCC3)c2)c1	-2.3%[10 µM]
Cc1ccc(CN2C[C@]34C=C[C@H](O3)C(C(=O)N(C)Cc3ccsc3)C4C2=O)cc1C (stereo partly drawn)	3.9%
COc1ccccc1N1CCN(C(=O)CCn2cnc3onc(-c4ccc(F)cc4)c3c2=O)CC1	-2.5%
CNC(=O)c1cc(C2CC2)nc2c1c(C1CCN([S+](=O)([O-])c3c(C)noc3C)CC1)nn2C	4.1%
Cc1ccc(S(=O)(=O)c2cn(C)c3cc(N4CCCCCC4)c(F)cc3c2=O)cc1	-21.8%
Cc1ccc(Cl)cc1NC(=O)c1cnc(N2CCCCC2)c2ccccc12	-14.4%
Cc1ccc(N2CC(C(=O)NCCS(=O)(=O)N3CCN(c4ccccc4)CC3)CC2=O)cc1C (stereo not drawn)	-25.8%
COc1ccc(NC(=O)Cn2c(-c3ccc(Cl)cc3)nc(C)cc2=O)cc1OC	-1.4%
COc1cc(CNC(=O)C2CCCCN2S(=O)(=O)c2ccc(F)cc2)cc(OC)c1OC (stereo not drawn)	-6.3%
Later entries
SMILES	nsP2pro inh
COc1ccc(N(C)c2nc(C)nc3ccccc23)cc1	-8.5%
CSCC[C@H](NC(=O)[C@H](CCSC)NC(=O)CNC(=O)[C@H](Cc1ccc(O)cc1)NC(=O)[C@H](Cc1ccccc1)NC(=O)[C@H](CCCN=C(N)N)NC(=O)[C@H](CC(=O)O)NC(=O)[C@@H]1CCCN1C(=O)[C@H](CC(=O)O)NC(=O)[C@@H]1CCCN1C(=O)[C@@H]1CCCN1C(=O)[C@@H](N)CC(=O)O)C(N)=O	-7.0%[10 µM]
CC(C)NC(=O)N1CC[C@H](N=C2Nc3cc(F)ccc3N(CC(F)F)c3ccc(Cl)cc32)C1	21.4%[5.1 µM]
CCN1c2cc(C(=O)NCCc3ccccc3)ccc2C(=O)N2CCCCCC21 (stereo not drawn)	-14.1%
Cc1ccc(Cn2nc(C(=O)N[C@@H]3C(C)(C)[C@@H]4CC[C@@]3(C)C4)cc2-c2ccc(Cl)c(C)c2)cc1	-10.8%
CN1CCN(c2cccc(Nc3nn4c(=O)c5ccc(F)cc5nc4s3)c2)CC1	i
Cc1occc1C(=O)N1CCC2(CCCN(CC3CCCCC3)C2=O)C1 (stereo not drawn)	-7.6%
O=C(Nc1cccc(Cl)c1)N1CC(n2cc(COc3ccccc3)nn2)C1	1.4%
O=C(NCCCN1CCc2ccccc2C1)C1CCCCC(=O)N1Cc1ccccc1 (stereo not drawn)	-20.7%
CCC(C)n1c(SCc2ccc(C(C)(C)C)cc2)nc2ccsc2c1=O (stereo not drawn)	u
CCCCn1c(Oc2cccc(C(=O)OC)c2)nc2c1c(=O)n(C)c(=O)n2C	-14.6%
CC(C)[C@H](NC(=O)OCc1ccccc1)C(=O)N[C@H](C=O)Cc1ccccc1	-19.8%
Cc1ccc(S(=O)(=O)Nc2ccccc2C(=O)Nc2ccc(-c3ccccc3)nc2)cc1	-14.9%
O=C(NCc1ccco1)NC1CCc2nnc(C3CC3)n2CC1 (stereo not drawn)	-24.7%
Cc1cccc2[nH]c(CN(C)C(=O)c3ccc(CCC(C)(C)O)cc3)nc12	4.2%

Seven records picked at random from the list so far:
SMILES	nsP2pro inh
O=C(NCc1ccco1)NC1CCc2nnc(C3CC3)n2CC1 (stereo not drawn)	-24.7%
Cc1ccc(Cn2nc(C(=O)N[C@@H]3C(C)(C)[C@@H]4CC[C@@]3(C)C4)cc2-c2ccc(Cl)c(C)c2)cc1	-10.8%
CC(C)NC(=O)N1CC[C@H](N=C2Nc3cc(F)ccc3N(CC(F)F)c3ccc(Cl)cc32)C1	21.4%[5.1 µM]
COc1ccc(N(C)c2nc(C)nc3ccccc23)cc1	-8.5%
Cc1cccc2[nH]c(CN(C)C(=O)c3ccc(CCC(C)(C)O)cc3)nc12	4.2%
O=C(NCCCN1CCc2ccccc2C1)C1CCCCC(=O)N1Cc1ccccc1 (stereo not drawn)	-20.7%
CCN1c2cc(C(=O)NCCc3ccccc3)ccc2C(=O)N2CCCCCC21 (stereo not drawn)	-14.1%

(more compounds)
SMILES	nsP2pro inh
COc1ccc(OC)c(CNC(=O)c2cccc(NC(=O)N3CCSc4ncccc43)c2)c1	-3.6%
CN(C(=O)Cc1ccsc1)C1CCc2nn(C)c(=O)n2CC1 (stereo not drawn)	-4.0%
CCc1nnc(-c2cnn(C)c2N)n1CCCn1ccnc1	i
O=C(c1ccccc1C(F)(F)F)N1CCc2nc3cc[nH]n3c(=O)c2C1	i
COc1cc(/C=N\NC(=O)c2ccc3c(c2)OCO3)ccc1OCc1ccccc1	-6.1%
Cc1ccc(S(=O)(=O)Nc2cnccc2C(=O)Nc2ccc(-n3cncn3)cc2)cc1	i
CCN(CCN(C)C)C(=O)CNCc1cc(C(=O)O)ccn1	67.2%[activator]
Cc1ccn2c(c1)nc(=O)c1cc(S(=O)(=O)N3CCCCC3)ccc12	-8.3%
COc1ccc(OC2CCN(C(C)=O)CC2)c(C(=O)NCCc2ccccc2OC)c1	i
CCCN1CCN(c2cccc(Nc3nn4c(=O)c5ccccc5nc4s3)c2)CC1	3.4%&-4.9%
CCCCCOc1ccc(C2SC(=O)NC2=O)cc1OCC (stereo not drawn)	-9.2%
Cc1cc(-c2nc(C(=O)Nc3cn(C4CCOCC4)nc3C(N)=O)co2)ccn1	11.2%
Cc1cccc(C(=O)N2CCC(c3noc(CO)n3)C2)c1 (stereo not drawn)	i
CCCSc1ncc(Cl)c(C(=O)NCc2ccc(OC)cc2)n1	5.7%
Cc1cnc(-c2ccccc2C(F)F)nc1NCC1CN(c2cnccn2)C1	2.3%
COc1cccc(-c2ccc3ncnc(NCc4cc(C)cs4)c3c2)c1	i
O=C(OCC#CCSc1nnc(-c2cccc3ccccc23)o1)c1cc2ccccc2o1	-4.3%
COc1cccc(C(=O)N2CC3(Cc4ccccc4N(C(C)=O)C3)C2)c1	-2.3%
O=C(Cn1nc2c(cc1=O)CCCCC2)Nc1nnc(C2CCCO2)s1 (stereo not drawn)	-0.9%
O=C(Cc1cccc(Cl)c1)N1CC(c2nc(Cc3ccccc3)no2)C1	-8.0%
Cc1nn2c(c1-c1ccccc1OCc1ccccc1)N(Cc1nccn1C)CCC2	i
CC(C)C1=NOC2(CCCN(Cc3ccccn3)C2)C1 (stereo not drawn)	-12.3%[39.2 µM]
C=C1C(=O)O[C@@H]2[C@H]1CC(=O)[C@H](C)[C@@](O)(C(=O)/C=C/C)[C@H]2OC(=O)C(C)CC (stereo partly drawn)	u
CO[C@@H]1[C@@H](O[C@H]2O[C@@H](C)[C@H](O[C@@H]3C[C@](C)(O)[C@H](O)[C@@H](C)O3)[C@@H](N(C)C)[C@@H]2O)[C@@H](CC=O)C[C@@H](C)[C@@H](O[C@H]2CC[C@H](N(C)C)[C@H](C)O2)/C=C/C=C/C[C@@H](C)OC(=O)C[C@H]1O	6.7%
CC(C)NC(=O)Cn1c(=O)nc(-c2ccccc2)c2ccccc21	-12.6%
COc1ccc2c(c1)c1c(c(=O)n(-c3ccccc3)c(=O)n1CC(=O)Nc1ccc(F)cc1)n2C	-6.0%
O=C1COc2ccc(-c3ccsc3)nc2CN1Cc1ccccc1F	-11.7%[39.2 µM]
Cc1cc(NS(=O)(=O)c2ccc(NC(=O)CCc3ccc(Cl)c(Cl)c3)cc2)no1	i
O=C(NCc1ccccc1)c1cnc2n1CCN(Cc1c[nH]c3ccccc13)CC2	i
Cc1ccc(S(=O)(=O)Nc2ccc3[nH]c(=O)sc3c2)cc1C	-4.6%
CCn1c(=O)c2ccnn2c2ccc(C(=O)NCc3ccc(N4CCOCC4)cc3)cc21	-12.9%
CCn1cc2nc(SCc3cc(C)ccc3C)n(CCc3ccccc3)c(=O)c2n1	-19.5%
COc1cc(O)c(C(CC(=O)N2CCCC(c3ccccc3)C2)c2ccc3c(c2)OCO3)c(OC)c1 (stereo not drawn)	3.2%[39.2 µM]

Assay outcomes deposited in PubChem by National Center for Advancing Translational Sciences (NCATS).
